# Assay outcomes as filed in PubChem BioAssay.
# RE007 growth inh – less growth of the S. pombe RE007 Vpr strain. S. pombe RE007 Vpr strain, BacTiter-Glo ATP luminescence, 24 h; control for the full effect not named in the record. Potency, µM (top dose mostly 92.2 µM), for inactives: top-dose activity change, negative = less growth. 360,000 tested, 0.21% active. AID 651644; active = well fitted falling curve with a large enough effect; inconclusive = small, poorly fitted or top-dose-only effect; inactive = no such curve, though single readings can be large or run the other way;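 further: on the % scale 0 is the no-effect control and ±100 the full control effect; nearly all actives have a fitted effect of over 50% in size; the assay follows cell death caused by Vpr and the record does not say whether a fall means rescue or toxicity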
#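 Fission yeast strain RE007, carrying one chromosomally integrated HIV-1 vpr copy, was seeded at OD 0.01 in PMG+AL medium with 23 nL pinned compound. After 24 h at 30 °C and 99% humidity, viability was read by BacTiter-Glo luminescence.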
# Marburg entry inh – Marburg virus entry inhibition. Marburg virus pseudotyped entry inhibition, cell reporter; control for the full effect not named in the record; about a third of the inactives were read at about 46 µM. Potency, µM (highest dose often 37.8 µM), inactives show at the top dose activity change, negative = inhibition, hits mostly inhibitors. 300,000 tested, 1.8% active. AID 540276; active = well fitted inhibition curve with a large enough effect; inconclusive = small, poorly fitted or top-dose-only effect, or effect the other way; inactive = flat fitted curve, though single readings scatter; tested in HEK293 cells; about a fifth of its hits are not listed in these tables; further: on the % scale 0 is the no-effect control and ±100 the full control effect; luciferase read-out
# LASV entry inh – inhibitors of Lassa virus binding or cell entry | Lassa virus pseudotype entry inhibition, cell reporter; control for the full effect not named in the record | Potency, µM (top dose mostly 37.9 µM), for the others: top-dose activity change, negative = inhibition, actives largely listed as inhibitors | 300,000 tested, 1.2% active | AID 540256; active means well fitted inhibition curve with a large enough effect; inconclusive means small, poorly fitted or top-dose-only effect, or effect the other way; inactive means flat fitted curve, though single readings scatter; tested in HEK293 cells; further: on the % scale 0 is the no-effect control and ±100 the full control effect; nearly all actives have a fitted effect of over 50% in size; luciferase read-out
# Cruzain Triton – inhibitors of Trypanosoma cruzi cruzain with detergent | P25779 | purified cruzain, Z-FR-AMC fluorescence, 0.01% Triton | 200,000 tested, 0.43% active | Potency, µM, for the others: max response, negative = inhibition, usual class: inhibitors;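 further: plate controls were neutral wells for no effect and buffer without enzyme for full effect; nearly all actives have a fitted effect of over 40% in size; top concentration of the series not given in the record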
# Target sequence (P25779 123-467 limits assumed): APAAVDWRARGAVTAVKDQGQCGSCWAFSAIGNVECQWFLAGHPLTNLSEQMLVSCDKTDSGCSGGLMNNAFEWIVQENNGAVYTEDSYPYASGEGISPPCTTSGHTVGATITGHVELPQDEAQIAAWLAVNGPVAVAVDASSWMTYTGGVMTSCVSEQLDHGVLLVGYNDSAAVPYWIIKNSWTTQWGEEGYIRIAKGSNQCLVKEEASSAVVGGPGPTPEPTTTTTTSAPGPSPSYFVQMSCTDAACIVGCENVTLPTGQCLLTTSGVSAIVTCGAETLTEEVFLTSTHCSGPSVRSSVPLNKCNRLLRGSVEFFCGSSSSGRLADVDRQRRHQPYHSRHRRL
#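 Z-FR-AMC hydrolysis (2 uM substrate) by cruzain (1.5 nM) monitored kinetically at ex 360/em 450 nm after 15 min room-temperature compound exposure; 0.01% Triton X-100, pH 5.5, 5 mM DTT.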
# SARS PLP yeast – inhibitors of SARS-CoV papain-like protease in yeast; S. cerevisiae expressing SARS-CoV PLpro, growth rescue; control for the full effect not named in the record; AID 485353; 330,000 tested, 0.19% active; Potency, µM (titrated, usually from 32.9 µM), for inactives: at the highest dose activity, positive = growth rescue; active means well fitted rising curve with a large enough effect; inconclusive means small, poorly fitted or top-dose-only effect; inactive means no such curve, though single readings can be large or run the other way; further: 0% is about no effect; nearly all actives have a fitted effect of over 55% in size; growth read by luminescence after 48 h
# Cruzain noTriton – cruzain (T. cruzi) inhibition without detergent. P25779. AID 1476. purified cruzain, Z-FR-AMC fluorescence, no detergent. 200,000 tested, 2.3% active. Potency, µM, inactives show max response, negative = inhibition, usual class: inhibitors;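 further: plate controls were enzyme without inhibitor for no effect and buffer without enzyme for full effect; nearly all actives have a fitted effect of over 40% in size; top concentration of the series not given in the record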
#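 Detergent-free condition (0.00005% Triton X-100) in acetate buffer pH 5.5 with DTT. 1.5 nM enzyme and compound were pre-mixed 15 min, then 2 uM Z-FR-AMC substrate added; reaction progress from fluorescence change between first and third reads (60 s).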
# NS1 function inh – blocks influenza NS1 protein function. S. cerevisiae slowed by influenza A NS1, growth recovery by OD600. Potency, µM (titrated, usually from 46.1 µM), for the others: at the top dose activity, positive = more growth. 270,000 tested, 0.4% active. AID 2326; active means well fitted rising curve with a large enough effect; inconclusive means small, poorly fitted or top-dose-only effect; inactive means no such curve, though single readings can be large or run the other way; further: nearly all actives have a fitted effect of over 50% in size
#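 Growth recovery, yeast-based: influenza A NS1 expressed in S. cerevisiae causes slow growth, and suppressors are detected by OD600. The parent strain without NS1 is used as positive control.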
# StopGo reporter – FMDV 2A StopGo reporter, luciferase signal. 410,000 tested, 1.2% active. Potency, µM (top dose mostly 57.9 µM), for the others: top-dose signal change, negative = less light. human cells with a luciferase reporter of 2A StopGo recoding; control for the full effect not named in the record. AID 1159524; active = well fitted falling curve with a large enough effect; inconclusive = small, poorly fitted or top-dose-only effect; inactive = no such curve, though single readings can be large or run the other way; tested in HEK293T cells; further: on the % scale 0 is the no-effect control and ±100 the full control effect; nearly all actives have a fitted effect of over 45% in size; luciferase light after 4 h
# * hit, by the source's call; ? = inconclusive; . = no result given; & = joins results of further samples; [ ] = remark or other dose. Unless noted, the call rests on the fitted dose curve; in most records, active means well fitted curve in the direction sought with a large enough effect; inconclusive means small, poorly fitted or top-dose-only effect, or another doubt; inactive means no such curve, though single readings can be large; an effect the other way counts as inactive or inconclusive. Potency means the concentration at half of the fitted maximal effect.
SMILES	RE007 growth inh	Marburg entry inh	LASV entry inh	Cruzain Triton	SARS PLP yeast	Cruzain noTriton	NS1 function inh	StopGo reporter
Cc1cc(C)n(/N=C/c2cccc(O)c2)c(=O)c1C(N)=O	20%	?	-2%	6.7%	-5%	-5%	-51%	-24%
CC(C)c1ccc(N2C(=O)NC(=O)/C(=C\C=C\c3ccco3)C2=O)cc1	39%	?	?	.	3%	.	.	?
O=C1/C(=C/c2ccccn2)SC(=S)N1Cc1ccccc1	12%	23%	7%	.	1%	.	6%	-20%
CCOC(=O)NCc1ccc2c(c1)cc(C)n2C	4%	3%	-5%	1.4%	-3%	9%	16%	-8%
CCc1nnc(NC(=O)[C@@H](NC(=O)c2cccc(S(=O)(=O)N3CCOCC3)c2)C(C)C)s1	9%	0%	16%	3.0%	0%	?	-18%	42%[activator]
CN(C)c1ccc(C(c2nnnn2C(C)(C)C)N2CCN(C(=O)c3ccco3)CC2)cc1 (stereo unspecified)	-6%	1%[46.1 µM]	13%	0.4%	1%	-8%	0%	-9%
CC(=O)Nc1ccc(NC(=O)COc2ccc(S(=O)(=O)NC(C)c3ccccc3)cc2)cc1 (stereo unspecified)	7%	-4%[46.1 µM]	1%[46.1 µM]	.	1%	.	8%	-12%
CCN1C(=O)c2cccc3c(S(=O)(=O)N(C(=O)c4cccnc4)c4ccc(OC)cc4)ccc1c23	-4%	?	-20%	-16%	-12%	?	8%	-54%
CC(=O)Nc1cc(C(=O)NCc2ccc(F)cc2)ccc1Sc1ccc(C)cc1	.	.	2%[46.1 µM]	0.5%	.	1%	.	-15%
CN(c1ccc(C(=O)N2CCN(Cc3ccc4c(c3)OCO4)CC2)cc1)S(=O)(=O)c1ccccc1	5%	?	-27%	2.1%	17%	4%	-16%	?
O=[N+]([O-])c1ccccc1-c1ccc(CN2CCN(c3ccccc3)CC2)o1	-10%	2%[46.1 µM]	12%[46.1 µM]	.	-3%	.	-28%	-5%
O=C(N/N=C/c1ccccc1)c1ccco1	-17%	?	?	.	-2%	.	-7%	60%[activator]
O=C(NCCc1ccccn1)c1nc(Cn2ccc([N+](=O)[O-])n2)no1	11%	18%[46.1 µM]	.	.	-2%	.	5%	-8%
Cc1cc([N+](=O)[O-])ccc1N(C)C	17%	2%	-4%	-2.1%	-9%	13%	3%	-5%
c1ccc(-c2cn(-c3ccccc3)c3ncnc(N4CCN(c5ccccc5)CC4)c23)cc1	.	.	4%[46.1 µM]	-0.8%	.	9%	.	0%
Cc1ccc(-n2ncc(C(=O)NCC3CCN(C4CCCC4)C3)c2C2CCN(C(=O)OC(C)(C)C)CC2)cc1C (stereo unspecified)	2%	?	2%[46.1 µM]	.	-2%	.	3%	-11%
O=C(NC1=NCCS1)c1cc(-c2cccc(Br)c2)nc2ccccc12	.	-27%	?	-8.0%	-54%	?	-29%	-4%
CCOC(=O)CSc1nnc(C2CCCCC2)n1C	4%	22%	6%	5.3%	4%	-4%	-13%	20%
O=C(CSc1n[nH]c(-c2cccnc2)n1)Nc1ccnc2ccccc12	3%	-3%	-7%	0.6%	0%	-2%	-5%	-12%
CN(C)c1ccc(NC(=O)CN2CCN(CC(=O)Nc3ccc(F)cc3)CC2)cc1	-2%	?	1%	-2.7%	-1%	-1%	1%	15%
Cc1csc(SC(C)C(=O)NCC2CCCCC2)n1 (stereo unspecified)	-1%	24%[46.1 µM]	16%	.	2%	.	.	0%
COc1ccc(CCNC(=O)c2ccc3c(c2)nc2n3CCC(C)C2)cc1OC (stereo unspecified)	.	.	1%[46.1 µM]	3.5%	.	-5%	.	-25%
OC1CCCN(Cc2c3ccccc3cc3ccccc23)C1 (stereo unspecified)	4%	-24%	9%	-15%	-2%	?	0%	.
CC(C)C(=O)Nc1cccc(-c2cn3ccsc3n2)c1	4%	18%	16%	6.6%	0%	-6%	-3%	40%[activator]
CCCN1CCN(C(=O)CCCNC(=O)Cn2cnc3sc(C)c(C)c3c2=O)CC1	0%	-16%[46.1 µM]	-8%	2.2%	7%	14%	-9%	1%

# The list goes on:
SMILES	RE007 growth inh	Marburg entry inh	LASV entry inh	Cruzain Triton	SARS PLP yeast	Cruzain noTriton	NS1 function inh	StopGo reporter
CCOC(=O)C1(Cc2ccc(Cl)cc2)CCN(CCCn2cccn2)CC1	8%	?	?	.	1%	.	4%	?
CC(=O)N1CC=C2C(C#N)=C(N)C(C#N)(C#N)C(C)C2C1 (stereo unspecified)	12%	-1%	14%	-7.1%	6%	13%	0%	8%
O=C(c1ccc2ccccc2c1)c1c[nH]cc1-c1ccccc1	21%	-7%	-4%	-8.7%	1%	9%	2%	5%
CCOC(=O)c1c(NC(=O)C[n+]2ccc(Cc3ccccc3)cc2)sc(C)c1C	5%	?	-21%[46.1 µM]	.	0%	.	.	-27%
CC1CCCCN1C(=O)CSc1nnc(-c2ccco2)n1C (stereo unspecified)	13%	20%[46.1 µM]	21%	.	3%	.	3%	14%
COc1cnc(-c2ccccn2)nc1Sc1ccccc1Cl	-29%	-3%	?	0.0%	-23%	9%	-112%	?
OCc1cnc(SCc2cccc(F)c2)n1Cc1ccc(F)cc1	.	.	17%[46.1 µM]	-4.1%	.	12%	.	-10%
CC(C)(C)c1ccc(C(=O)NNc2cc(Cl)cc(Cl)c2)cc1	-9%	.	.	.	-1%	.	-40%	-14%
Cc1ccc2c(c1)Sc1ccccc1CC2=O	-20%	-7%	0%	4.2%	11%	4%	-5%	-22%
CCCOc1ccc(C(CC(=O)O)NC(=O)C23CC4CC(CC(C4)C2)C3)cc1 (stereo unspecified)	-5%	-6%	0%	4.5%	-3%	?	13%	-3%
COC(=O)CN(c1ccc(C)c(Cl)c1)S(C)(=O)=O	-2%	2%	?	0.7%	4%	-6%	6%	-8%
CC(C(=O)NCc1cccc(Cl)c1)N1C(=O)c2ccccc2C1=O (stereo unspecified)	1%	8%[46.1 µM]	-9%[46.1 µM]	.	1%	.	15%	33%[activator]
CC(C)(C)C1CCc2onc(C(=O)Nc3ccc(F)cc3F)c2C1 (stereo unspecified)	-3%	-5%	36%[14.3 µM]	-0.5%	2%	-2%	?	-16%
CCCN1CCN(CCCNC(=O)c2ccc3c(Cl)c4c(nc3c2)CCCC4)CC1	2%	.	.	.	-2%	.	-7%	-25%
O=C(NCCN1CCN(c2cccc(Cl)c2)CC1)c1ccc(CSc2nc3ccncc3[nH]2)cc1	-4%	?	?	.	1%	.	.	-22%
O=C(O)c1cccc2c1C(=O)N(C1CCCCC1)C2	11%	.	.	0.2%	-6%	-11%	?	-14%
COc1ccc(NC(=O)CCNS(=O)(=O)c2cccc3nonc23)c(OC)c1	-2%	-12%&-7%[46.1 µM]	-2%	-1.3%	-5%	3%	0%	11%&-17%
CCOC(=O)c1c(SCC(=O)Nc2nc3ccccc3s2)nc(=O)[nH]c1C	.	.	10%[46.1 µM]	-3.9%	.	-9%	.	-15%
O=C(c1cnn2ccccc12)N1CCc2ccccc21	-11%	.	.	0.7%	-5%	-2%	-67%	44%[activator]
Cc1cccc(NC(=O)CN(C2=NC3CS(=O)(=O)CC3S2)c2ccccc2F)c1 (stereo unspecified)	6%	.	.	.	3%	.	-6%	-19%
O=C(CCNC(=O)c1ccc([N+](=O)[O-])cc1)NCCCN1CCCC1=O	-6%	?	8%	.	4%	.	10%	-8%
COc1ccc(C(=O)NNC(=O)C23CC4CC(CC(C4)C2)C3)c(OC)c1	-30%	19%[46.1 µM]	25%	.	0%	.	-19%	37%[activator]
CCOC(=O)CN1C(=O)CN(c2ccc(C)c(C)c2)C1=O	-2%	?	?	-1.4%	-17%	-3%	5%	5%
COCCOC(=O)c1c(C)oc2ccc(OCc3cc(C(=O)OC)oc3C)cc12	-8%	?	0%	-3.1%	-3%	?	-42%	.
CC(=O)c1cccc(OCC(=O)Nc2cc(Cl)ccc2-n2cncn2)c1	13%	?	13%	.	2%	.	.	22%

# (continued)
SMILES	RE007 growth inh	Marburg entry inh	LASV entry inh	Cruzain Triton	SARS PLP yeast	Cruzain noTriton	NS1 function inh	StopGo reporter
Cc1nc2c(-c3ccc(F)cc3)c(C)nn2c(C)c1CCC(=O)NCCN1CCOCC1	-4%	0%	.	-1.0%	-5%	-9%	-5%	?
O=C(CNc1ccc(Oc2ccccc2)cc1)N1CCOCC1	-1%	15%	15%	6.9%	2%	-3%	-8%	-26%
O=C(Nc1cccc2ccccc12)c1ccccc1	-2%	?	9%[46.1 µM]	4.7%	-1%	-7%	6%&-6%	0%
COc1ccc2[nH]c(=O)c(CN(C(=O)c3cccnc3)c3cccc(C)c3)cc2c1	11%	.	.	.	0%	.	1%	-11%
S=c1nc[nH]c2c1sc1nc(-c3ccccc3)c3c(c12)CCCC3	7%	.	.	-5.3%	-16%	-24%	16%	-29%
CNS(=O)(=O)c1cccc(C(=O)NCC2(N3CCCCC3)CCCCC2)c1	0%	-1%[46.1 µM]	1%[46.1 µM]	.	0%	.	2%	14%
Cc1c2c(nc3c(C)cccc13)OC(C)C2 (stereo unspecified)	-9%	6%	4%	-2.1%	2%	-11%	-4%	1%
c1ccc(-c2cc(N3CCCCCC3)n[nH]2)cc1	-25%	-11%	6%	2.8%	0%	-18%	?	32%[activator]
CCCC(c1nnnn1C(C)(C)C)N1CCN(Cc2ccccc2OC)CC1 (stereo unspecified)	1%	?	7%[46.1 µM]	.	1%	.	-1%	-5%
Cc1cccc(C(=O)NCc2nnc(SCC(=O)Nc3nncs3)n2C)c1	6%	12%[46.1 µM]	6%	.	16%	.	8%	-10%
CCOc1ccc(NC(=O)c2csc3c2CCCC3)cc1	-15%	8%	-1%	0.1%	-6%	1%	13%	-9%

# Compounds were not picked by outcome (roughly 4.7% active in at least one column).
